From PubChem
D2 PAM – positive allosteric modulators of human D2 dopamine receptor; 360,000 tested, 0.23% active; DiscoveRx D2 beta-arrestin cells, luminescence, 90 min; 100% = 57 uM dopamine signal; potentiation, % (no concentration beside the values); active = potentiation of 50% or more; inconclusive = 30% to 50%; inactive = 30% or less;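 further: compound concentration not given in the record; tested on top of an EC20 dose of dopamine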
Target sequence (P14416 whole entry, looked up): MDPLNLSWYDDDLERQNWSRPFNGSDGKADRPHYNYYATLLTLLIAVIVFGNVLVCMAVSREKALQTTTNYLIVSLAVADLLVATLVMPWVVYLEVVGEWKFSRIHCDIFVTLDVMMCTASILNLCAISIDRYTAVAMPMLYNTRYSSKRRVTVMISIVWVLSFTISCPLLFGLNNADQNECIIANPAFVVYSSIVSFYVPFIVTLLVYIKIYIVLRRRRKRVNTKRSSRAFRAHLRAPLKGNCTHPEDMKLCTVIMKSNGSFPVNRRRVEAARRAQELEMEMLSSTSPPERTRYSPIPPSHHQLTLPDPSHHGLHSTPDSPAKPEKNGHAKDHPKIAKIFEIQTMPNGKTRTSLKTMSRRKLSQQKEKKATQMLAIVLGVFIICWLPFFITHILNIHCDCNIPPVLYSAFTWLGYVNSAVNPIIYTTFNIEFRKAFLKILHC
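D2 cells co-treated with compound plus 50 nM dopamine (EC20) for 90 min at 37 deg C to detect potentiation. Beta-arrestin recruitment was read as enzyme-fragment luminescence after 1 h at ambient temperature. Full response was set by 57 uM dopamine.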
TRPML1 inh – inhibitors of human TRPML1 channel | Q9GZU1 | TRPML1-inducible cells, Ca2+ dye fluorescence, FDSS; stronger effect = lower value; inhibition of EC80 agonist-evoked calcium signal | activity change, negative = inhibition, % (no concentration beside the values) | 390,000 tested, 0.02% active | AID 624415; in the data active means activity change below about -50%; inconclusive means about -30% to -50%; inactive means above about -30%;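 further: stimulus is agonist 54-4 at its EC80 concentration; on the % scale 0 is the no-effect control and ±100 the full control effect; compound concentration not given in the record; the text of the record puts the active cut at -80%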
Target sequence (Q9GZU1 whole entry, looked up): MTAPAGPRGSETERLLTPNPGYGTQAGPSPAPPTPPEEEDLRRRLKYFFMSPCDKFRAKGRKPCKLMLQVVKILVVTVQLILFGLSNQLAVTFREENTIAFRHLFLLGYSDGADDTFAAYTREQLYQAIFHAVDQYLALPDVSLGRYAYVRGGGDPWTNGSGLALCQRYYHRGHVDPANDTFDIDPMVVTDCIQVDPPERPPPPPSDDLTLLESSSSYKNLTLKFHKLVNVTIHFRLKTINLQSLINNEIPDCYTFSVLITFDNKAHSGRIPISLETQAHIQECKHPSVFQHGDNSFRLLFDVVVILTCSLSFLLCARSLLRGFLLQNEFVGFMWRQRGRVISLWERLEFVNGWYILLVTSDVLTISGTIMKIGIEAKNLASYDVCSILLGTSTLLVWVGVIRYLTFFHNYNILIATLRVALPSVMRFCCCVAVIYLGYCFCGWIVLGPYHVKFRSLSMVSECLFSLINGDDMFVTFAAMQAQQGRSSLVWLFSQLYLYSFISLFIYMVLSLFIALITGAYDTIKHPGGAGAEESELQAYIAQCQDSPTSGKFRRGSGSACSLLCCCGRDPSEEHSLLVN
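Calcium fluorescence in TRPML1-DL cells induced overnight with Tet: a 110 s read after compound pin addition, then a 110 s antagonist read after challenge with 54-4 at 4 uM final (EC80).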
TRPML1 agonist – human mucolipin-1 channel agonism. Q9GZU1. activation, % (test concentration not listed). AID 624414. 410,000 tested, 0.12% active. TRPML1-expressing cells, Ca2+ dye fluorescence, FDSS; host cell line not named in the record; reference of the full effect not given here; in the data active = activation above about 50%; inconclusive = about 30% to 50%; inactive = below about 30%; further: 0% is about no effect; the text of the record puts the active cut at 80%
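Agonist activity was taken from a 110 s kinetic Ca2+ dye read on the FDSS after pinning compounds onto TRPML1-DL cells. The cells were seeded at 1,500/well with Tet inducer, incubated about 16 h, then dye-loaded at room temperature.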
PINK1 modulator – modulators of PINK1 expression. PINK1 immunofluorescence, high-content cytometry, 24 h. Potency, µM (series often up to 76.6 µM), for the others: at the highest dose activation (PINK1 increase), actives largely listed as activators. 410,000 tested, 0.2% active. AID 624263; active = well fitted activation curve with a large enough effect; inconclusive = small, poorly fitted or top-dose-only effect; inactive = flat fitted curve, though single readings scatter; cell line not stated here;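 further: potency means the concentration at half of the fitted maximal effect; % of control where 0% means no effect; nearly all actives have a fitted effect of over 65% in size; a mitochondrial uncoupler was the plate control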
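Readout is PINK1 immunofluorescence, quantified alongside mitochondrial, cell and nuclear markers by laser-scanning microplate cytometry. Cells from a stable line were exposed to compound titrations (5 concentrations) for 24 hours, with CCCP controls.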
D2 agonist – agonists of human D2 dopamine receptor (beta-arrestin); DiscoveRx PathHunter D2 beta-arrestin, luminescence, 90 min; 100% = 57 uM dopamine signal; AID 624465; 360,000 tested, 0.084% active; activation, % (no concentration beside the values); P14416; in the data active = activation above about 40%; inconclusive = about 15% to 40%; inactive = below about 15%; further: compound concentration not given in the record; the text of the record calls up to 30% inactive
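Agonist mode: compounds alone added to overnight-plated D2 PathHunter cells for 90 min at 37 C, with 57 uM final dopamine (EC100) defining full response. Beta-arrestin recruitment detected by chemiluminescent reagent, read after 1 h at ambient temperature.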
Six1-Eya2 inh – inhibitors of human Six1/Eya2 interaction; activity change, % (test concentration not listed); 360,000 tested, 0.56% active; AID 651725; AlphaScreen GST-Six1/His-Eya2 binding, biochemical; stronger effect = lower value; control for the full effect not named in the record; in the data active = activity change below about -65%; inconclusive = about -30% to -65%; inactive = above about -30%; further: on the % scale 0 is the no-effect control and ±100 the full control effect; compound concentration not given in the record
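AlphaScreen with GST-Six1 and His-Eya2 (5X mix: 250 nM and 500 nM), glutathione donor and nickel acceptor beads; buffer 50 mM Tris pH 8.0, 300 mM NaCl, 1 mM TCEP; 1 h at 37 C in the dark.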
Numbers without * were called inactive; ? = inconclusive; / = not tested or not shown; [ ] = remark or other dose.

Every second line gives: D2 PAM	TRPML1 inh	TRPML1 agonist	PINK1 modulator	D2 agonist	Six1-Eya2 inh
1. COc1cccc(N2CCN(CC(=O)NCc3ccccc3)CC2)c1
    -5.8	6.8	-0.6	-1.3%	7.6	2.6
2. COC(=O)c1ccc(Cn2c(CN3CCOCC3)nc3ccccc3c2=O)o1
    18.0	4.9	1.1	-1.7%	0.7	-0.4
3. CC(C(=O)N1CCN(Cc2ccc3c(c2)OCO3)CC1)c1ccc([N+](=O)[O-])cc1 (configuration not stated)
    -3.2	-12.7	0.4	21.8%	-0.6	-2.2
4. CC1CCN(S(=O)(=O)c2ccc3c(c2)CCN3C(=O)CCC(=O)O)CC1
    -8.1	7.9	-0.3	?	-0.7	0.4
5. COc1cnn(-c2cccc(C(F)(F)F)c2)c(=O)c1Cl
    1.9	-0.4	0.2	-0.3%	-3.4	3.1
6. O=C(c1ccco1)N1CCN(Cc2ccccc2F)CC1
    19.3	4.2	-0.5	1.0%	75.3*	1.6
7. CCOCc1nnc(NC(=O)CCS(=O)(=O)Cc2ccccc2)s1
    7.4	7.6	1.1	2.7%	-1.0	11.0
8. NC(=NCCc1ccccc1)NS(=O)(=O)c1ccccc1F
    -9.5	-4.2	1.2	-0.1%	-3.0	6.8
9. CS(=O)(=O)N1CC(C(=O)NN)Oc2ccc(Cl)cc21 (configuration not stated)
    -15.4	-6.2	0.8	0.0%	-2.8	-1.3
10. COc1ccc(C(=O)c2nc3c(n2O)CCCC3)cc1OC
    8.3	-2.2	1.1	3.9%	2.7	-0.1
11. COCCc1ncc(CN2CCCC(C(=O)Nc3cccc(-c4cccc(C)c4)c3)C2)cn1 (configuration not stated)
    -27.2	-26.3	0.1	1.2%	-3.6	-0.9
12. COCc1nnc(NC(=O)c2ccc(NC(C)=O)cc2)s1
    3.8	16.4	0.0	-0.9%	-4.1	15.0
13. COc1ccc(-c2cc(-c3ccc(F)cc3)nc3c2COc2ccccc2-3)cc1
    /	-4.9	-0.1	6.4%	/	/
14. Cc1ccsc1C(=O)N1CCC1(C)C(=O)NCC(C)(C)C (configuration not stated)
    -8.4	/	-0.5	0.7%	-4.9	9.7
15. CCN(CC)S(=O)(=O)c1cc(NC(=O)C(=O)c2c(-c3ccccc3)cc3ccccn23)ccc1C
    -5.6	-0.4	0.4	-1.8%	-0.5	-11.6
16. Cc1ccc(C(=O)N2C3C=CC(C3)C2(C(F)(F)F)C(F)(F)F)cc1 (configuration not stated)
    -29.3	0.8	-1.3	-0.2%	-5.4	15.0
17. CCOc1ccc(/C=N/NC(=S)Nc2c(C)cccc2C)cc1
    -9.9	30.1	3.0	1.4%	-4.0	-8.2
18. CCc1ccccc1NS(=O)(=O)c1ccc2[nH]cc(C(=O)N(CC(C)C)CC(C)C)c(=O)c2c1
    /	5.7	1.5	0.6%	/	/
19. Cc1cc(S(=O)(=O)N2CCCC2)ccc1OCC(=O)N1CCC(C(N)=O)CC1
    2.2	5.4	0.8	-1.1%	-3.3	-5.0
20. CCOCCc1nn2c(=O)cc(COC(=O)CNC(=O)c3ccc(C(C)(C)C)cc3)nc2s1
    /	23.7	-0.3	0.5%	/	/
21. O=C(NCc1ccccc1CN1CCCC1)c1cccc(N2CCCC2=O)c1
    -2.2	2.0	0.0	-0.6%	-2.8	-1.5
22. CCCCCn1c(CCNC(=O)CCC)nc2ccccc21
    -7.0	16.7	0.5	5.9%	-5.0	-6.4
23. CC1CCC(NC(=O)C2(C)Cc3ccccc3C(=O)N2Cc2ccc(F)cc2)CC1 (configuration not stated)
    /	20.3	1.6	1.1%	/	/
24. O=C(CN1C(=O)COc2ccc(S(=O)(=O)N3CCCC3)cc21)N1CCN(c2cccc(C(F)(F)F)c2)CC1
    /	30.8	2.8	-0.4%	/	/
25. Cc1nc2ccccn2c(=O)c1NC(=O)c1cccc2ccccc12
    1.6	6.4	-0.2	-0.3%	-1.7	0.6
26. COc1ccc(C(C)NC(=S)NC2CCCCC2)cc1OC (configuration not stated)
    -7.6	2.5	-0.7	-0.9%	0.0	-11.8
27. COc1cc(Cl)c(C)cc1NC(=O)COC(=O)C(NS(=O)(=O)c1ccc(Cl)cc1)C(C)O (configuration not stated)
    -41.3	-0.7	-0.7	4.4%	-0.3	1.4
28. Cc1sc2ncnc(NCC3CCCO3)c2c1C (configuration not stated)
    -2.4	-2.8	-0.9	1.1%	-0.2	6.4
29. CCOc1ccc(NC(=O)CN(C)C(=O)Cc2c[nH]c3ccccc23)cc1OCC
    8.1	3.0	0.5	4.6%	-1.7	-28.3
30. CC(C)c1ccc(OCC(=O)NC2=NCCS2)cc1
    0.0	-22.4	0.5	-1.5%	0.8	-3.3
31. Cc1cccc(N2C(=O)CC(Sc3nc(-c4ccccc4)c4cc(Cl)ccc4n3)C2=O)c1 (configuration not stated)
    -4.6	-20.3	0.8	-2.1%	-0.2	0.4
32. N#Cc1c(C(F)(F)F)cc(-c2ccc(Cl)cc2)nc1SCC(=O)O
    -22.2	-3.8	-0.1	-1.4%	3.4	5.6
33. Cc1cc2cc(CN(C(=O)C3CC3)C3CCCC3)c3nnnn3c2cc1C
    -2.7	7.1	-0.1	-1.6%	-4.4	0.1
34. Nc1nc(=O)n(C2CC(O)C(CO)O2)cc1F (configuration not stated)
    -17.3	32.4	0.1	-4.3%	-5.2	0.2
35. COc1ccccc1NNC(=O)C(O)(c1ccccc1OC)c1ccccc1OC
    -2.5	-5.0	2.6	0.6%	-2.5	-0.4
36. O=C(NCCNC(=O)c1cccc(O)c1)c1cccc(O)c1
    -3.6	-7.6	1.6	-0.3%	-1.6	-12.8
37. COC(=O)c1c(NC(=O)CN2C(=O)C(=O)N(C(C)C)C2=O)sc(C)c1C
    -5.4	-12.5	0.3	1.8%	2.9	-2.0
38. Cc1cc(C)c(C)c(OCC(=O)NCC2CCCO2)c1 (configuration not stated)
    -5.8	-1.0	-0.9	-2.7%	-2.3	4.4
39. Cc1ccc(-n2c(=O)c3ccccc3n(CC(=O)NCc3ccco3)c2=O)cc1
    -6.1	/	/	1.0%	-2.6	-14.3
40. O=C(O)COCC(=O)NCc1csc2ccccc12
    -5.4	13.3	0.4	2.7%	-0.7	9.1
41. Cc1ccsc1CN1CCc2nc(Nc3ccccc3)ncc2C1
    /	19.3	1.9	-0.4%	/	/
42. O=C(N/C(=C/c1ccc([N+](=O)[O-])cc1)C(=O)N1CCOCC1)c1ccco1
    -16.8	-9.0	0.5	0.4%	1.0	3.4
43. CCOc1cc(/C=C2\CCn3c2nc2cc(Cl)ccc2c3=O)ccc1O
    -7.4	29.6	0.2	5.3%	-2.4	2.1
44. Cc1noc2ncnc(NCc3cccc(Cl)c3)c12
    /	13.1	-0.1	2.1%	/	/
45. O=C(NCC1CC1)c1onc(CSc2nc3ccccc3[nH]2)c1C(=O)NCC1CC1
    -11.1	-11.6	1.3	4.0%	-0.4	-2.6
46. CC(=O)N1CCSc2ccc(S(=O)(=O)Nc3ccccc3C)cc21
    -4.3	-12.7	-0.7	0.5%	1.2	0.2
47. O=C(NCc1ccccc1Cl)c1ccc2c(=O)n(CCCN3CCCC3=O)c(=S)[nH]c2c1
    -12.1	-9.2	0.0	3.8%	-2.1	4.9
48. COC(=O)CC(=O)CSc1nc2cc(C(=O)NC(C)C)ccc2c(=O)n1CCc1ccccc1
    /	8.4	0.5	8.0%	/	/
49. CCC(OC(=O)CN1C(=O)c2ccccc2C1=O)C(=O)NC1CCCC1 (configuration not stated)
    0.1	-12.5	0.3	-0.8%	-1.9	10.6
50. CCc1nnc(NC(=O)CSc2nnc(-c3c[nH]c4ccccc34)n2C)s1
    -5.3	-1.5	0.9	13.4%[38.3 µM]	0.5	-10.0

The results go on:
Every second line gives: D2 PAM	TRPML1 inh	TRPML1 agonist	PINK1 modulator	D2 agonist	Six1-Eya2 inh
51. COc1ccccc1CC(=O)Nc1cc(S(=O)(=O)N2CCOCC2)ccc1N1CCOCC1
    -0.5	23.8	0.2	0.0%	-2.8	-1.6
52. Cc1onc(-c2c(Cl)cccc2Cl)c1C(=O)NCCN1CCOCC1
    -8.5	5.4	0.1	?	-0.3	-0.2
53. O=C(COC(=O)CCc1nc2ccccc2n1-c1ccccc1)Nc1ccc(N2CCCCC2)cc1
    -6.5	-1.8	0.4	9.5%	-5.2	-14.1
54. CCOC(=O)CN1C(=O)C(O)=C(C(C)=O)C1c1ccccc1 (configuration not stated)
    25.8	-24.0	0.0	0.0%	-3.1	3.7
55. Cc1ccc(Cl)c2sc(N3CCN(C(=O)c4ccco4)CC3)nc12
    -11.4	1.0	2.4	-0.3%	-3.2	-11.5
56. Clc1cccc(OCc2nc(-c3ccncc3)no2)c1
    -11.2	73.3	2.2	1.8%	-7.1	5.2
57. CC(C)N(Cc1nccn1C)C(=O)CC1C(=O)NCCN1Cc1ccccc1C(F)(F)F (configuration not stated)
    -3.6	7.3	-1.1	1.6%	-4.1	7.3
58. COc1ccc(C(=O)Nc2ccccc2C(=O)Nc2ccccc2)cc1
    -5.5	9.5	-0.5	6.0%	-3.8	7.3
59. O=S(=O)(c1ccc2[nH]ccc2c1)N1CCCCCC1
    -2.9	9.4	0.0	0.7%	1.1	-0.9
60. CCc1ccc(C2CC(=O)c3c([nH]c(C(=O)OCCOc4ccccc4)c3C)C2)cc1 (configuration not stated)
    /	-2.1	0.1	19.6%	/	/
61. COc1ccc(N(C)S(=O)(=O)c2cccc(C(=O)NC3CCCC(C)C3C)c2)cc1 (configuration not stated)
    -25.5	69.3	3.6	-4.6%	-5.9	-4.8
62. CN(C(=O)c1ccoc1)c1ccc2ccccc2c1
    -6.9	10.7	1.2	5.1%	1.9	-1.7
63. Cc1cc(C(=O)N/N=C/c2ccc(Br)o2)n[nH]1
    -7.5	10.2	0.8	0.5%	-2.4	-7.5
64. Cc1ccc(-n2c(Cc3ccccc3)nnc2SCc2nc(-c3cccs3)no2)cc1C
    /	9.3	-0.2	?	/	/
65. Cc1nc2nc(SCC(=O)NCc3ccccc3)nn2c(C)c1Cc1ccccc1Cl
    /	-4.7	4.1	6.1%	/	/
66. Cc1ccccc1-c1nnc(SCC(=O)Nc2cccc(C)c2C)o1
    -13.6	-5.4	3.2	-3.0%	-1.9	19.8
67. Cc1ccc(NC(=O)c2ccc(NCCCN3CCC(C)CC3)c([N+](=O)[O-])c2)c(C)c1
    -15.8	5.0	3.8	3.2%	-2.3	-3.0
68. COc1cc(/C=N/n2c(C)n[nH]c2=S)ccc1OCc1ccc(F)cc1
    -28.8	10.7	2.8	5.9%	-1.5	-15.5
69. CCCCn1c(O)c(N=NC(=O)c2ccco2)c2ccccc21
    -26.4	-20.0	1.2	4.3%	-8.2	-27.9
70. Cc1c(NS(=O)(=O)c2cccc(C(=O)NCc3cccc(Cl)c3)c2)c(=O)n(-c2ccccc2)n1C
    -1.0	-1.3	3.9	4.1%	-1.6	0.8
71. CCC(NC(=O)c1ccccc1O)c1ccccc1 (configuration not stated)
    -12.4	2.1	2.2	3.0%[38.3 µM]	-6.2	2.2
72. COC(=O)[C@H](CCSC)NC(=O)N1CCN(Cc2ccccc2)CC1
    -9.8	-15.8	1.4	2.0%[38.3 µM]	-0.7	4.0
